Screens as filed in PubChem.
Methyltransferases: Primary Screen for Target Class Profiling of Small Molecule Inhibitors of Methyltransferases; purified enzyme, MTase-Glo SAH luminescence; active compounds read low; calls only at 40 µM; 3.9% of 25,000 active; active = -50% or lower on at least one of six enzymes; inconclusive = the cases between; inactive = as a rule above -30% on all six;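 further: enzymes were COMT GAMT GNMT HNMT NNMT and PNMT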
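Each enzyme was assayed with SAM and its substrate. SAH formation detected by MTase-Glo luminescence; single-point 40 uM screen[…].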
Calls only; i = inactive; ? = inconclusive; + = active, no number. On the % scale 0 is the no-effect control and ±100 the full control effect. This is a subset, so the mix of outcomes need not match the whole.

CCOc1ccc(NC(=O)N2Cc3ccccc3-n3cccc3C2c2cccc(Cl)c2)cc1 (centres undefined)
  Methyltransferases: i
Cc1cccc(C)c1NC(=O)CN1CCCC1=O
  Methyltransferases: i
COc1ccccc1NC(=O)N1Cc2ccccc2-n2cccc2C1c1cccc(Cl)c1 (centres undefined)
  Methyltransferases: i
COC[C@H]1OC(=O)c2coc3c2[C@@]1(C)C1=C(C3=O)C2CCC(=O)[C@@]2(C)C[C@H]1OC(C)=O (some centres undefined)
  Methyltransferases: ?
CCc1ccc(C2c3cccn3-c3ccccc3CN2C(=O)NC2CCCC2)cc1 (centres undefined)
  Methyltransferases: i
CC[C@@H](C(N)=O)N1CCCC1=O
  Methyltransferases: i
Cc1ccc(C2c3cccn3-c3ccccc3CN2C(=O)Nc2ccccc2Br)cc1 (centres undefined)
  Methyltransferases: i
O=C(NCc1ccco1)N1Cc2ccccc2-n2cccc2C1c1ccccc1 (centres undefined)
  Methyltransferases: i
O=C(Nc1ccc(F)c(Cl)c1)N1Cc2ccccc2-n2cccc2C1c1ccccc1 (centres undefined)
  Methyltransferases: i
CCc1ccccc1NC(=O)N1Cc2ccccc2-n2cccc2C1c1ccc(N(C)C)cc1 (centres undefined)
  Methyltransferases: i

Cc1ccccc1C1=CCN(C)CC1
  Methyltransferases: i
CC1c2cccn2-c2ccccc2CN1C(=O)Nc1ccccc1F (centres undefined)
  Methyltransferases: i
CCCCCC[C@H]1C(=O)O[C@H](C)[C@H](NC(=O)c2cccc(NC=O)c2O)C(=O)O[C@@H](C)[C@@H]1OC(=O)CC(C)C
  Methyltransferases: ?
CCOc1ccc(NC(=O)N2Cc3ccccc3-n3cccc3C2c2ccc(OC)cc2)cc1 (centres undefined)
  Methyltransferases: i
Cc1ccc(C)c(NC(=O)N2Cc3ccccc3-n3cccc3C2c2ccccc2)c1 (centres undefined)
  Methyltransferases: i
c1ccc2sc(C3(N4CCCCC4)CCCCC3)cc2c1
  Methyltransferases: i
C[C@@]1(CO)[C@H](O)CC[C@@]2(C)[C@H]1CC[C@H]1C[C@@H]3C[C@@]12CC[C@]3(O)CO
  Methyltransferases: i
CC(C)[C@H](NC(=O)c1nn(Cc2ccc(F)cc2)c2ccccc12)C(N)=O
  Methyltransferases: ?
CCOC(=O)Cc1ccc(NC(=O)N2Cc3ccccc3-n3cccc3C2c2ccccc2)cc1 (centres undefined)
  Methyltransferases: i
CCOc1ccc(C2c3cccn3-c3ccccc3CN2C(=O)Nc2ccc(C)cc2Cl)cc1 (centres undefined)
  Methyltransferases: i

CN(C(=O)Cc1ccccc1)C(CN1CCCC1)c1ccccc1 (centres undefined)
  Methyltransferases: ?
CC(=O)OC[C@]12C[C@H](OC(C)=O)C(C)=C[C@H]1O[C@@H]1[C@H](O)[C@@H](O)[C@@]2(C)[C@]12CO2
  Methyltransferases: i
CSc1cccc(NC(=O)N2Cc3ccccc3-n3cccc3C2c2ccc(N(C)C)cc2)c1 (centres undefined)
  Methyltransferases: i
C/C=C(/C)C(=O)O[C@H]1[C@@H]2[C@H](C)C(=O)O[C@@H]2C[C@@H](C)[C@@H]2C=CC(=O)[C@]21C
  Methyltransferases: i
C/C=C(\C)C(=O)OC1C(C)OC(OC2C(C)OC(OC3CCC4(C)C(=CCC5C4CCC4(C)C(C(C)OC6OC(COC7OC(CO)C(O)C(O)C7O)C(O)C(O)C6O)CCC54O)C3)CC2OC)C(O)C1OC (centres undefined)
  Methyltransferases: i
O=C(Nc1ccccc1F)N1Cc2ccccc2-n2cccc2C1c1ccc(F)cc1 (centres undefined)
  Methyltransferases: i
CCCN(CCC)C1Cc2cc(OC)c(OC)cc2C1
  Methyltransferases: i
COc1ccc(C)cc1NC(=O)N1Cc2ccccc2-n2cccc2C1c1cc(F)cc(F)c1 (centres undefined)
  Methyltransferases: i
C#C[C@]1(O)CC[C@H]2[C@@H]3CC[C@H]4Cc5nc6nc7ccccc7n6cc5C[C@]4(C)[C@H]3CC[C@@]21C
  Methyltransferases: +
CCC1c2cccn2-c2ccccc2CN1C(=O)Nc1ccccc1Br (centres undefined)
  Methyltransferases: i

S=C(NC1CCCCC1)N1CCC(c2cnc[nH]2)CC1
  Methyltransferases: i
O=C(O)C(=O)c1cn(Cc2ccccc2)c2ccc(-c3ccc(OC(F)(F)F)cc3)cc12
  Methyltransferases: i
CC(C)NC(=O)N1Cc2ccccc2-n2cccc2C1c1cccs1 (centres undefined)
  Methyltransferases: i
COC(=O)c1cccc(NC(=O)N2Cc3ccccc3-n3cccc3C2c2cccc(Cl)c2)c1 (centres undefined)
  Methyltransferases: i
COc1ccccc1NC(=O)N1Cc2ccccc2-n2cccc2C1C(C)C (centres undefined)
  Methyltransferases: i
COc1ccc(NC(=O)N2Cc3ccccc3-n3cccc3C2c2ccccc2C)cc1OC (centres undefined)
  Methyltransferases: i
Cc1cccc(C2c3cccn3-c3ccccc3CN2C(=O)Nc2cccc(Cl)c2C)c1 (centres undefined)
  Methyltransferases: i
Ic1ccccc1CNC1C2CCN(CC2)C1C(c1ccccc1)c1ccccc1 (centres undefined)
  Methyltransferases: i
CCC1(O)CCC2C3CCC4=CC(=O)CCC4C3CCC21CC (centres undefined)
  Methyltransferases: i
COc1ccc(OC)c(NC(=O)N2Cc3ccccc3-n3cccc3C2c2ccccc2C)c1 (centres undefined)
  Methyltransferases: i

Cc1ccc(NC(=O)N2Cc3ccccc3-n3cccc3C2c2ccc(N(C)C)cc2)c(C)c1 (centres undefined)
  Methyltransferases: i
C[C@@H]1Cc2c(Cl)cc(C(=O)N[C@@H](Cc3ccccc3)C(=O)O)c(O)c2C(=O)O1
  Methyltransferases: i
CCCN(CCC)C1CCc2cccc(O)c2C1 (centres undefined)
  Methyltransferases: i
NC(=NCCC[C@H](N)C(=O)O)N[N+](=O)[O-]
  Methyltransferases: i
CCCN(CCC)[C@@H]1CCc2ccc3[nH]c(C#N)cc3c2C1
  Methyltransferases: +
CCOC(=O)c1cccc(NC(=O)N2Cc3ccccc3-n3cccc3C2c2cccc(Cl)c2)c1 (centres undefined)
  Methyltransferases: i
CCC1c2cccn2-c2ccccc2CN1C(=O)Nc1cc(C)cc(C)c1 (centres undefined)
  Methyltransferases: i
COc1cc(CCNCc2ccccc2O)c(OC)cc1C#N
  Methyltransferases: i
C=C[C@H]1CN2CC[C@H]1C[C@@H]2CNCc1ccc2c(c1)OCO2
  Methyltransferases: i
CCOC(=O)CC1(NC(=O)N2Cc3ccccc3-n3cccc3C2C)CCCCC1 (centres undefined)
  Methyltransferases: i

2 of these compounds, reformatted.
canonical_smiles	Methyltransferases
C=C[C@H]1CN2CC[C@H]1C[C@@H]2CNCc1ccc2c(c1)OCO2	i
CCOC(=O)CC1(NC(=O)N2Cc3ccccc3-n3cccc3C2C)CCCCC1 (centres undefined)	i

Other entries
C[C@@H]1C(=O)O[C@H]2[C@H](O)[C@@]34[C@@H]5OC(=O)[C@@]3(O[C@@H]3OC(=O)[C@@H](O)[C@@]34[C@H](C(C)(C)C)[C@H]5O)[C@@]12O
  Methyltransferases: i
CC[C@@]1(O)C(=O)OCc2c1cc1n(c2=O)Cc2cc3c(OC)cccc3nc2-1
  Methyltransferases: i
CCOc1ccc(C2c3cccn3-c3ccccc3CN2C(=O)Nc2cccc(Cl)c2C)cc1 (centres undefined)
  Methyltransferases: i
Cc1nnc2n1-c1sc(CCc3ccc(CC(C)C)cc3)cc1C(c1ccccc1Cl)=NC2C (centres undefined)
  Methyltransferases: +
C#CCO[C@H]1CN2CCC1CC2
  Methyltransferases: i
CCc1ccc(C2c3cccn3-c3ccccc3CN2C(=O)Nc2ccc(C)c(F)c2)cc1 (centres undefined)
  Methyltransferases: i
CCc1ccc(NC(=O)N2Cc3ccccc3-n3cccc3C2c2ccccc2)cc1 (centres undefined)
  Methyltransferases: i
CC(C)(C)CC(=O)N1C[C@@H]2C[C@H](C1)c1ccc(NC(=O)c3ccco3)c(=O)n1C2
  Methyltransferases: i
COc1ccc(NC(=O)N2Cc3ccccc3-n3cccc3C2c2ccc(OC)cc2)cc1 (centres undefined)
  Methyltransferases: i
CCCNC(=O)N1Cc2ccccc2-n2cccc2C1c1cccc(Cl)c1 (centres undefined)
  Methyltransferases: i

C[C@]12CCC3C(CC[C@H]4C[C@H](O)CC[C@]34C)C1CC[C@@H]2C(=O)CO (some centres undefined)
  Methyltransferases: i
O=C(Oc1ccc([N+](=O)[O-])cc1)N1CCC(C(O)(c2ccc3c(c2)OCO3)c2ccc3c(c2)OCO3)CC1
  Methyltransferases: ?
C[C@]12CC[C@H](O)CC1=CC[C@@H]1C2CC[C@]2(C)[C@@H](C3=CC(=O)OC3)CC[C@]12O (some centres undefined)
  Methyltransferases: i
COc1ccc(C2c3cccn3-c3ccccc3CN2C(=O)Nc2ccc(Cl)cc2)cc1OC (centres undefined)
  Methyltransferases: i
CC(N[C@H]1C[C@@H]1c1ccccc1)c1ccc2c(c1)OCCO2 (some centres undefined)
  Methyltransferases: ?
COc1ccc(-c2cc([C@H]3CN4CC[C@H]3C[C@@H]4CN)nc(C)n2)cc1OC
  Methyltransferases: +
CSc1ccc(C2c3cccn3-c3ccccc3CN2C(=O)Nc2cccc(SC)c2)cc1 (centres undefined)
  Methyltransferases: i
COc1ccc(C2c3cccn3-c3ccccc3CN2C(=O)Nc2cccc(C)c2C)cc1OC (centres undefined)
  Methyltransferases: i
Cc1cccc(C2c3cccn3-c3ccccc3CN2C(=O)Nc2ccc(Br)c(C)c2)c1 (centres undefined)
  Methyltransferases: i
CC(C)NC(=O)N1Cc2ccccc2-n2cccc2C1C (centres undefined)
  Methyltransferases: i

CCCNC(=O)N1Cc2ccccc2-n2cccc2C1c1ccc(SC)cc1 (centres undefined)
  Methyltransferases: i
C[N+]1(CC2CC2)CC[C@]23c4c5ccc(O)c4O[C@H]2C(=O)CC[C@@]3(O)[C@H]1C5 (some centres undefined)
  Methyltransferases: ?
CCOC(=O)Nc1ccc(NCc2c(C)cc(C)cc2C)cc1N
  Methyltransferases: ?
C#CCOC(=O)C1=CCCN(C)C1
  Methyltransferases: i
CN(C)c1ccc(C2c3cccn3-c3ccccc3CN2C(=O)Nc2ccc(F)c(Cl)c2)cc1 (centres undefined)
  Methyltransferases: i
Cc1ccccc1NC(=O)N1Cc2ccccc2-n2cccc2C1c1ccccc1 (centres undefined)
  Methyltransferases: i
CC(N)c1cccc(Cl)c1Cl (centres undefined)
  Methyltransferases: +
Cc1cccc(C2c3cccn3-c3ccccc3CN2C(=O)NCCC(C)C)c1 (centres undefined)
  Methyltransferases: i
Cc1ccc(NC(=O)N2Cc3ccccc3-n3cccc3C2c2ccc(Cl)cc2)cc1 (centres undefined)
  Methyltransferases: i
CC1=CC2/C=C(\C)CCC(O)C3OC(C)(C)OC3CC(=O)OC23C(=O)NC(CC(C)C)C3C1C (centres undefined)
  Methyltransferases: i

CC[C@H](O)[C@@H](C)[C@H]1O[C@@H]1C[C@H](C)/C=C/C=C(\C)[C@H]1OC(=O)C[C@H](O)CC[C@@](C)(O)[C@@H](OC(C)=O)/C=C/[C@@H]1C
  Methyltransferases: i
CSc1ccc(-c2ccc(=O)n3c2[C@@H]2C[C@@H](CN(C(=O)Nc4cccc(F)c4)C2)C3)cc1
  Methyltransferases: i
Oc1ccc2c(c1)C13CCCC[C@H]1[C@@H](C2)N(CC1CCC1)CC3
  Methyltransferases: +
COc1c(C(C)C)cc2c(c1O)[C@@]1(C(=O)O)CCCC(C)(C)C1CC2 (some centres undefined)
  Methyltransferases: i
COc1cc2c(cc1O)C1(C)CCC(O)C(C)(C)C1CC2=O (centres undefined)
  Methyltransferases: i
C[C@@H]1C[C@@H](O)[C@]2(O)O[C@@H]3C[C@@]4(C=O)C(CC[C@@H]5C4CC[C@]4(C)[C@@](O)(C6=CC(=O)OC6)CC[C@]54O)C[C@H]3OC2O1 (some centres undefined)
  Methyltransferases: i
O=C(NCc1ccccc1)N1Cc2ccccc2-n2cccc2C1c1ccccc1 (centres undefined)
  Methyltransferases: i
COCCCNC(=O)N1Cc2ccccc2-n2cccc2C1c1ccc(F)cc1 (centres undefined)
  Methyltransferases: i
CC(C)CCN1CCC2CC(=O)NCCC2C1 (centres undefined)
  Methyltransferases: i
CC(=O)c1c(O)c(C)c(O)c(Cc2c(O)c3c(c(C(=O)/C=C/c4ccccc4)c2O)OC(C)(C)C=C3)c1O
  Methyltransferases: ?

Reprinted from the part before: six entries; new compounds follow.
COc1cc2c(cc1O)C1(C)CCC(O)C(C)(C)C1CC2=O (centres undefined)
  Methyltransferases: i
C[C@@H]1C[C@@H](O)[C@]2(O)O[C@@H]3C[C@@]4(C=O)C(CC[C@@H]5C4CC[C@]4(C)[C@@](O)(C6=CC(=O)OC6)CC[C@]54O)C[C@H]3OC2O1 (some centres undefined)
  Methyltransferases: i
O=C(NCc1ccccc1)N1Cc2ccccc2-n2cccc2C1c1ccccc1 (centres undefined)
  Methyltransferases: i
COCCCNC(=O)N1Cc2ccccc2-n2cccc2C1c1ccc(F)cc1 (centres undefined)
  Methyltransferases: i
CC(C)CCN1CCC2CC(=O)NCCC2C1 (centres undefined)
  Methyltransferases: i
CC(=O)c1c(O)c(C)c(O)c(Cc2c(O)c3c(c(C(=O)/C=C/c4ccccc4)c2O)OC(C)(C)C=C3)c1O
  Methyltransferases: ?
CC(C)C1(OO)C=C2C(=O)CC3C(C)(C(=O)O)CCCC3(C)C2CC1 (centres undefined)
  Methyltransferases: i
O=c1ccc2[nH]cc(C3=CCNCC3)c2[nH]1
  Methyltransferases: +
C=CCN1C[C@H](C)N([C@H](c2ccc(C(=O)N(CC)CC)cc2)c2cccc(OC)c2)C[C@H]1C
  Methyltransferases: i
Cn1nc(-c2cccs2)cc1[C@H]1CN2CC[C@H]1C[C@@H]2CNC(=O)C1CCCCC1
  Methyltransferases: i
COc1cc2c(cc1CCc1ccccc1)N(C(=O)C(C)C)CC21CCN(C(C)=O)CC1
  Methyltransferases: i
CCCNC(=O)N1Cc2ccccc2-n2cccc2C1c1ccccc1C (centres undefined)
  Methyltransferases: i
Cc1ccc(NC(=O)N2Cc3ccccc3-n3cccc3C2c2ccccc2Cl)c(C)c1 (centres undefined)
  Methyltransferases: i
O=C1CN=C(c2cccc(Br)c2)c2oc3ccccc3c2N1
  Methyltransferases: ?
COc1ccccc1NC(=O)N1Cc2ccccc2-n2cccc2C1c1ccc(N(C)C)cc1 (centres undefined)
  Methyltransferases: i
